Assay outcomes as filed in PubChem.
NPYLR7 agonist = activates Aedes aegypti NPYLR7 receptor; hit rate 0.15% among 270,000; activation, % at 10 µM; HEK293T NPYLR7/Galpha15, GCaMP6s calcium fluorescence; in the data active = activation above about 40%;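 also: 0% = vehicle and 100% = reference agonist at the receptor; some compounds past the cut are filed as inactive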
NPYLR7 agonist max-min = second read-out of NPYLR7 agonist, no call of its own (marks repeat the call); activation, %; measured here: Max-Min RFU normalised activation; some inactives read as strong as hits;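 span of the calcium signal over five minutes; 0% = vehicle and 100% = native peptide agonist; compound fluorescence can raise it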
The depositor's hits bear a star; & = joins results of further samples. Only part of the results is shown; rates above refer to the full screens.

SMILES | NPYLR7 agonist | NPYLR7 agonist max-min
Cc1cc(=O)oc2cc3oc(=O)cc(C)c3cc12 | 13 | 6
CSCC[C@H](N)C(=O)Nc1cccc(C(=O)Nc2c(C)cccc2C)c1 | 1 | 0
C[C@@H](NC(=O)C1=C[C@@H](Oc2ccc(C#N)cc2Br)[C@H](O)[C@H](O)C1)C(N)=O | -6 | -13
O=C1C(=Cc2c(F)cccc2Cl)SC(=S)N1C1CCS(=O)(=O)C1 (stereo not drawn) | -2 | -5
O=C(NCCNC(=O)C1CCN(C(=O)c2ccco2)CC1)c1ccccc1 | 15 | 20
Cn1cnn(CN2CCOCC2)c1=S | -1 | -4
CCC(C(=O)Nc1ccc(C2SCC(=O)N2c2ccc(OC)cc2OC)cc1)c1ccccc1 (stereo not drawn) | -2 | 4
CCOC(=O)C1=C(O)/C(=C\c2cccc(O)c2)SC1=Nc1ccccc1F | -8 | -4
CN1CC2(CCCN(C(=O)CCc3csc(N)n3)CC2)OC1=O (stereo not drawn) | 2 | 1
Cc1ccc(CN(C)Cc2c(C(=O)N3CCN(C4CCCCC4)CC3)nc3ccccn23)o1 | 10 | 4
Cc1ccc(-c2cncnc2)c(-n2nc(C)cc2C)c1 | 2 | 1
COc1cc(C2NC(=O)N(C)C(C)=C2C(=O)OCc2ccccc2)cc(Cl)c1O (stereo not drawn) | 7 | 5
CC(C)N1C(=O)C2(SCCN2C(=O)c2ccc(Cl)cc2)c2ccccc21 (stereo not drawn) | 19 | 15
NS(=O)(=O)c1ccc(NS(=O)(=O)c2ccc(OC(F)(F)F)cc2)cc1 | 1 | 0
Cc1ccc2c(NC(=O)C(c3ccccc3)c3ccccc3)noc2n1 | -1 | -1
Cc1c(C(=O)N(C)Cc2ccccc2O)oc2c1C(=O)CCC2 | 0 | -3
CCCN1CCCN(c2nc(OC)nc(N3CCCCCC3)n2)CC1 | 3 | 1
COc1ccc(S(=O)(=O)N2CCC(CO)(Cc3ccccc3C(F)(F)F)CC2)cc1 | 3 | -1
COc1ccccc1/C=C1/C(=O)NC(=O)N(Cc2ccccc2)C1=O | 2 | 2
COc1ccc(C(=O)Nc2ccc(-c3c(C4CC4)nn(-c4ccc(F)cc4)c3OC(C)=O)cc2)cc1 | 2 | 6
CCC(=O)C1CCCN(C(=O)c2cccc(OC3CCN(S(C)(=O)=O)CC3)c2)C1 (stereo not drawn) | 8 | 1
Cc1ccc2oc(-c3ccc(NC(=O)c4ccc(Cl)c(Cl)c4)cc3)nc2c1 | 2 | -1
CCC(C)NC(=O)CCOc1ccc(F)cc1 (stereo not drawn) | 7 | 7
O=C(Cc1cc(-c2ccc(F)cc2F)on1)NC1=NCCS1 | 2 | 6
O=C(CCC1CCN(C(=O)c2sccc2Cl)CC1)NCC1CCCO1 (stereo not drawn) | 9 | 1
Cc1cc(C)n(CCCN(C)C(=O)c2csc(C)n2)n1 | -2 | -2
O=C(COc1ccc(Cl)cc1)Nc1cccc(C2SCC(=O)N2c2ccc3c(c2)OCO3)c1 (stereo not drawn) | 0 | 10
C=CCn1c(O)c(N=NC(=O)c2ccc(C)nc2)c2ccccc21 | 14 | 13
COC(=O)c1cc(Br)ccc1S(=O)(=O)Nc1ccc(OC)c(S(N)(=O)=O)c1 | 5 | 7
Cc1ccc(-n2ncc3c(=O)n(NC(=O)c4cccs4)cnc32)cc1C | 5 | 4
CCOC(=O)c1cnc(-c2cccnc2)nc1NCCc1cccs1 | 2 | 5
CCCCCNc1nc(CC)c2c(c1C#N)CC(C)(C)OC2 | 2 | -2
CC(C)C(NC(=O)Cn1nnc(-c2ccc(F)cc2)n1)c1cccs1 (stereo not drawn) | 10 | 9
O=C(c1ccccn1)N1CCC(NS(=O)(=O)c2ccc(Br)cc2)C1 (stereo not drawn) | 2 | 0
COc1ccc2c(c1)CCN2C(=S)NC1CC1 | -1 | 9
COc1ccc(N2CCN(S(=O)(=O)c3ccc(Cl)cc3)CC2)cc1 | -4 | -9
CCN(C)c1c(C)nc2c(OCc3ccc(Cl)cc3)cccn12 | 9 | -5
CS(=O)(=O)N1CCN(C(=O)CCc2csc(NC(=O)c3ccc[nH]c3=O)n2)CC1 | -13 | -14
Cc1[nH]cnc1CN(C)C(C)C(=O)N(C)C (stereo not drawn) | 15 | 13
COc1cc(N)c(Cl)cc1C(=O)OCCN1CCCCC1 | 4 | -20
Cc1nccn1CCCC(=O)N1CC[C@@H](c2ccc3ccccc3c2)[C@H](O)C1 | 7 | 2
COc1ccc2c(c1)OC(C)(C)CC2NC(=O)Cn1nc(C)cc1N (stereo not drawn) | -2 | -3
COc1cc(C)c(Br)cc1S(=O)(=O)NCc1ccc2c(c1)OCO2 | 9 | 5
NC(=O)COc1ccccc1C=Nc1ccc(Br)cc1 | 5 | 9
c1nc(NCC2CCCO2)ncc1CN1CCCn2cncc2C1 (stereo not drawn) | 12 | 2
Cc1nc(CN(C)Cc2cccc(C(=O)Nc3ccc(F)cc3F)c2)no1 | 7 | 6
Cc1ccc2c(c1)NC(C)c1ccccc1O2 (stereo not drawn) | -8 | -8
Clc1ccc(OCc2nc3ccc(Cl)cc3[nH]2)c(Cl)c1 | 1 | 6
CNC(=O)C1CCN(c2nnnn2-c2ccccc2)CC1 | 4 | 2
O=C(NCCc1ccccc1Cl)C1CCC(=O)N(CCCc2ccccc2)C1 (stereo not drawn) | -1 | -1
O=C(Nc1cccc(Cl)c1)N(CC(=O)N1CCc2sccc2C1COc1ccc(F)cc1)C1CC1 (stereo not drawn) | -3 | -1
O=C(NCCN1C(=O)SC(=Cc2ccc(Cl)c([N+](=O)[O-])c2)C1=O)c1ccco1 | 3 | 25
Cc1ncc(C#N)c(C)c1Cl | -4 | 2
O=c1c(Cl)c(N2CCCC2)cnn1-c1ccccc1 | 4&4 | 0&0
O=C(Cc1ccccc1Cl)N1CC(c2ccncc2)C1 | 1 | -4
O=C1COCc2ccc(-c3ccc4ccccc4c3)cc2N1CCN1CCOCC1 | 10 | 6
CC1(C(=O)Nc2cccc3ncccc23)CCN1C(=O)C1(c2ccccc2)CC1 (stereo not drawn) | -2 | 22
CCCOC(=O)CN1C(=O)c2c(Cl)c(Cl)c(Cl)c(Cl)c2C1=O | 7 | 5
CCOC(=O)c1c(NC(=O)Cc2ccc(Cl)cc2)sc(C(=O)Nc2ccccc2OC)c1C | -6 | 0
COc1cccc(C(C)(O)c2nc(-c3cnn(C)c3)cs2)c1 (stereo not drawn) | 7 | 2

Continuation.
SMILES | NPYLR7 agonist | NPYLR7 agonist max-min
CC(=O)c1ccc(Br)s1 | -9 | -19
CN(C)CC(C)(C)CNC(=O)[C@H]1CSC(c2ccccc2)N1 (stereo partly drawn) | 8 | 10
O=C(Cn1cnc(-c2ccccc2)cc1=O)N(Cc1ccccc1)c1ccccc1 | 8 | 2
C[C@@]12CO[C@@H](CNC(=O)C3CCCC3)O[C@@H]1CC[C@]1(C)[C@@H]2CC[C@H]2OC(=O)C[C@H]21 | -13 | -14
COC(=O)CCCC(=O)Nc1cccc(-c2cccc(-c3ccc(F)cc3F)n2)c1 | -4 | -7
CCc1nn2c(N(C)C)cc(C)nc2c1-c1ccccc1 | 5 | 5
Cc1ccc(N2CCN(C(=O)c3cccc(Br)c3)C(C)C2=O)c(C)c1 (stereo not drawn) | 2 | 5
CCC[C@H](N)C(=O)N1CCC(c2[nH]ncc2CC)CC1 | 4 | 4
c1ccc(-c2cc(-c3ncc[nH]3)c(-c3ccccc3)o2)cc1 | 1 | 1
Cc1ccc(CN(Cc2ccccc2)Cc2nc(C(=O)NCc3ccncc3)co2)cc1 | 23 | 31
O=C(Nc1nn(Cc2ccc(Oc3ccccc3)cc2)c2ccccc12)c1ccco1 | -4 | 11
CN(C(=O)c1cccnc1Oc1ccccc1)c1ccc(-c2onc3c2CCc2ccccc2-3)cc1 | 2 | -3

Some of these compounds in order of count of non-hydrogen atoms, low to high.
SMILES | NPYLR7 agonist | NPYLR7 agonist max-min
CC(=O)c1ccc(Br)s1 | -9 | -19
CCc1nn2c(N(C)C)cc(C)nc2c1-c1ccccc1 | 5 | 5
Cc1ccc(N2CCN(C(=O)c3cccc(Br)c3)C(C)C2=O)c(C)c1 (stereo not drawn) | 2 | 5
Cc1ccc(CN(Cc2ccccc2)Cc2nc(C(=O)NCc3ccncc3)co2)cc1 | 23 | 31

(cont.)
SMILES | NPYLR7 agonist | NPYLR7 agonist max-min
Cc1nc(-c2ccccc2)nc(N2CCN(C(=O)c3ccc(F)cc3)CC2)c1Cc1cccc(Cl)c1 | 8 | 19
CC1C(=O)N(c2ccccc2Cl)CCN1C(=O)c1ccc([N+](=O)[O-])cc1 (stereo not drawn) | -10 | -7
CCc1ccc(OCCCn2c(CO)nc3ccccc32)cc1 | 3 | -3
Cc1cc(C)nc(SCCn2c(N(C)Cc3ccccc3)nc3c2c(=O)n(C)c(=O)n3C)n1 | -5 | -6
CC1(C)Cc2c(c(N3CCOCC3)nc3snc(N)c23)CO1 | 4 | 6
Cc1ccccc1NC(=O)N1CCN(C(C)c2ccccc2)CC1 (stereo not drawn) | -4 | 3
COc1cc(/C=C2/SC(=Nc3ccccc3)NC2=O)cc(OC)c1O | 4 | -5
CCC(CO)N(Cc1ccsc1)C(=O)c1ccc2cc[nH]c2c1 (stereo not drawn) | -7 | -11
CCc1nn(-c2ccccc2Cl)c(CC)c1C(=O)NCc1ccccn1 | 8 | 8
CN(CCNC1CCSC1)S(C)(=O)=O (stereo not drawn) | 2 | 2
C=CC[C@@H]1CC=C[C@@H](C)N1C(=O)CCc1c[nH]c2ccccc12 | 1 | 1
CCn1c(C)csc1=Nc1ccc(N=Nc2ccccc2)cc1 | -5 | -11
CCc1ccccc1N1CCN(C(=O)c2ccc(N3C(=O)C4CCCCC4C3=O)cc2)CC1 (stereo not drawn) | 3 | 7
CC(C)(C)c1cc(NC(=O)CN(Cc2ccccc2)S(=O)(=O)c2ccc(Cl)cc2)n(-c2ccccc2Cl)n1 | 21 | 18
COc1cccc2c1OCC(CN1CCC(CO)(Cc3cccc(C(F)(F)F)c3)CC1)=C2 | 2 | 0
Cc1nc(SCCCCN2C(=O)c3ccccc3C2=O)c2c3c(sc2n1)CCC3 | -1 | -6
CC(C)c1ccc(-n2[nH]nnc2=S)cc1 | -2 | -6
Cc1cccc2sc(NNC(=O)c3ccc(N(C)C)cc3)nc12 | -7 | -6
NC(=O)C1CCCN(Cc2cccc(CNC(=O)C3CCCO3)c2)C1 (stereo not drawn) | -2 | 26
C=CCOc1ccc(/C=N\O)cc1Cl | 1 | 5
COc1ccc(-n2nc(-c3ccccc3)c3c2N(CC(=O)NCc2ccc(F)cc2)C(=O)CSC3c2ccc3c(c2)OCO3)cc1 (stereo not drawn) | 2 | 5
OC1(c2ccccc2)C2C3C4C5C(C2C35Br)C41Br (stereo not drawn) | 1 | 0
Cc1cccc(C(=O)N2CCCC(N3CCN(c4cccc(Cl)c4)CC3)C2)n1 (stereo not drawn) | 6 | 2
COC(=O)Cn1nc(C(C)C)c2cnn(-c3ccccc3)c2c1=O | 6 | 0
CCCOc1nc(-c2cccc(OC)c2)n(-c2ccc(NC(=O)c3cccc(OC)c3)cc2)n1 | 10 | 14
Cc1ccc2[nH]nc(C(=O)N3CCNC(C(=O)O)C3)c2c1 (stereo not drawn) | 9 | 1
CCOc1ccc(C)cc1S(=O)(=O)Nc1cc(C)cc(C)c1 | 5 | 5
CN1CC2N(C(=O)c3cc4ccccc4s3)C3CCC2(CC3)OC1=O (stereo not drawn) | 27 | 26
C=CCc1nnnn1[C@H]1CO[C@H]2[C@@H]1OC[C@H]2OC(=O)Nc1ccc(C(C)=O)cc1 | -7 | -11
Cc1cc(C2=NNC(=CSc3nnc(-c4cc5c(s4)CCC(C)C5)o3)O2)c(C)o1 (stereo not drawn) | 11 | 16
COC(=O)C1=C(C)OC(c2ccccn2)C(C)=C1 (stereo not drawn) | -2 | -4
CSc1nc2c(cnn2Cc2ccccc2)c(=O)[nH]1 | -5 | -6
CC1CCCN(C(=O)NCc2cn3c(n2)CCCC3)C1 (stereo not drawn) | 8 | 5
Cc1ccn(CC(=O)N2CC[C@@H](N3CCN(c4ccccc4F)CC3)[C@H](O)C2)n1 | 4 | 2
O=C(O)c1cnc2ccccc2c1N1CCCC1 | -2 | -2
Cc1c(F)cccc1NC(=O)CNC(CC(C)C)c1ncnn1C (stereo not drawn) | 4 | -4

Grouped by structure, the entries above with fluorine.
SMILES | NPYLR7 agonist | NPYLR7 agonist max-min
O=C1C(=Cc2c(F)cccc2Cl)SC(=S)N1C1CCS(=O)(=O)C1 (stereo not drawn) | -2 | -5
CCOC(=O)C1=C(O)/C(=C\c2cccc(O)c2)SC1=Nc1ccccc1F | -8 | -4
NS(=O)(=O)c1ccc(NS(=O)(=O)c2ccc(OC(F)(F)F)cc2)cc1 | 1 | 0
COc1ccc(S(=O)(=O)N2CCC(CO)(Cc3ccccc3C(F)(F)F)CC2)cc1 | 3 | -1
COc1ccc(C(=O)Nc2ccc(-c3c(C4CC4)nn(-c4ccc(F)cc4)c3OC(C)=O)cc2)cc1 | 2 | 6
CCC(C)NC(=O)CCOc1ccc(F)cc1 (stereo not drawn) | 7 | 7
O=C(Cc1cc(-c2ccc(F)cc2F)on1)NC1=NCCS1 | 2 | 6
CC(C)C(NC(=O)Cn1nnc(-c2ccc(F)cc2)n1)c1cccs1 (stereo not drawn) | 10 | 9
Cc1nc(CN(C)Cc2cccc(C(=O)Nc3ccc(F)cc3F)c2)no1 | 7 | 6
O=C(Nc1cccc(Cl)c1)N(CC(=O)N1CCc2sccc2C1COc1ccc(F)cc1)C1CC1 (stereo not drawn) | -3 | -1
COC(=O)CCCC(=O)Nc1cccc(-c2cccc(-c3ccc(F)cc3F)n2)c1 | -4 | -7
Cc1nc(-c2ccccc2)nc(N2CCN(C(=O)c3ccc(F)cc3)CC2)c1Cc1cccc(Cl)c1 | 8 | 19
COc1cccc2c1OCC(CN1CCC(CO)(Cc3cccc(C(F)(F)F)c3)CC1)=C2 | 2 | 0
COc1ccc(-n2nc(-c3ccccc3)c3c2N(CC(=O)NCc2ccc(F)cc2)C(=O)CSC3c2ccc3c(c2)OCO3)cc1 (stereo not drawn) | 2 | 5
Cc1ccn(CC(=O)N2CC[C@@H](N3CCN(c4ccccc4F)CC3)[C@H](O)C2)n1 | 4 | 2
Cc1c(F)cccc1NC(=O)CNC(CC(C)C)c1ncnn1C (stereo not drawn) | 4 | -4
